PrP 5UTR inh – inhibition of PrP 5' UTR reporter expression; cell-based PrP 5' UTR mRNA reporter, plate reader; inhibition, % (concentration not given with the values); 340,000 tested, 0.35% active; AID 488862;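 active = every replicate at 50% or more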;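 also: 0 = median of the neutral control wells; tested in H4 reporter cells; numbers are from one replicate; inactives centre near -14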
Autofluor counter – compound fluorescence in toxin protease inhibitor counterscreen | compound autofluorescence counterscreen, microsphere flow cytometry; active compounds read high | fluorescence intensity (no concentration beside the values) | 360,000 tested, 3.1% active | AID 624483;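 active = at least 3 SD above the mean of all compounds, about 16000 in these data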;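 also: 100 nL of 1 mM stock went into each well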
Mtb hypoxia inh – Mtb hypoxia fluorescent reporter inhibition | M. tuberculosis hypoxia-regulated fluorescent reporter, fluorescence | fluorescence inhibition, % (no concentration beside the values) | 300,000 tested, 0.1% active | AID 1159583;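 active = 35 to 45% if threefold the growth effect, above 45% if 1.5-fold the growth effect; inactive = the rest, general growth blockers included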;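 also: wells of about 50 µL received 100 nL stock; 0% = vehicle wells and 100% = reference inhibitor wells; whole bacteria with a GFP reporter of the hypoxia response; strong numbers were not always called active; many hits fall short of the cut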
Sa ugtP lethal – compounds lethal to S. aureus RN4220 ugtP deletion mutant; OD600 growth, 16 h; some inactives read as strong as hits; growth inhibition, % (no concentration beside the values); 330,000 tested, 0.54% active;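 active = z-score under -3 and OD600 up to 0.15 on both plates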;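 also: plate controls were untreated wells for no effect and antibiotic for full effect; wells of about 80 µL received 100 nL stock; the first replicate is given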
RN4220 kill – S. aureus RN4220 growth inhibition. inhibition, % (concentration not given with the values). OD600, 16 h. 330,000 tested, 0.33% active;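 active = z-score of -3 or lower and OD600 up to 0.18 on both plates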;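 also: plate controls were untreated cells for no effect and reference antibiotic for full effect; stock transfer was 100 nL into about 80 µL; one replicate is shown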
BJeLR viability – BJeLR cell viability loss; BJeLR (HRASV12) viability, CellTiter-Glo ATP luminescence, 48 h; reference of the scale not given here; inhibition, % (test concentration not listed); 300,000 tested, 0.17% active;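 active = replicate mean above 50%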;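 also: 50 nL library stock added to about 25 µL; numbers are from one replicate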
Mtb hypoxia inh growth – second read-out of Mtb hypoxia inh, no call of its own (marks repeat the call); growth inhibition, %; measured here: M. tuberculosis growth (absorbance);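 0% = vehicle and 100% = reference antibiotic; read after six days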
Starred values were filed as active, the others as inactive; . = not tested or not shown. Hits appear at their usual frequency; about 4.1% have a hit in one of these screens.

SMILES	PrP 5UTR inh	Autofluor counter	Mtb hypoxia inh	Mtb hypoxia inh growth	Sa ugtP lethal	RN4220 kill	BJeLR viability
CCOC(=O)C1=C(N)OC2=C(C(=O)CCC2)C1c1ccccc1OC (configuration not stated)	-12	2543	-2	5	6	4.4	10
Cn1c(N)c(C(=O)CSc2nnc(C3CC3)n2Cc2ccccc2)c(=O)n(C)c1=O	-11	3756	12	14	5	4.0	.
O=S(=O)(Nc1ccc2cn[nH]c2c1)c1ccc(Cl)s1	-11	5142	-11	1	8	0.1	-11
COc1ccc(CN(CC(=O)NCc2ccccc2)C(=O)c2csnn2)cc1	-15	3391	4	7	2	5.0	0
COc1cc(S(=O)(=O)N(CCc2ccccc2)Cc2cccs2)ccc1-n1cnnn1	-2	11247	5	0	1	8.0	-4
O=C(CSc1nc2ccccc2[nH]1)N1CCN(C(=O)c2ccco2)CC1	-17	2402	5	6	5	5.3	1
COc1cc(Cl)ccc1OCc1cc(C(=O)N2CCCCCCC2)no1	-14	4616	5	4	-4	0.3	-2
Cc1cc(C)n(CC(O)Cn2c3ccccc3c3ccccc32)c(=O)n1 (configuration not stated)	-3	9507	6	3	-1	1.3	5
Cc1ccc(C(=O)Nc2nnc(S(=O)(=O)N3CCCCCC3)s2)cc1	-18	4432	-10	-3	-14	4.0	3
CSc1cc(-c2ccco2)oc1C(=O)c1ccco1	-16	.	-3	3	-8	7.5	-6
O=C(COc1ccccc1F)Nc1ccc(N2CCOCC2)cc1N1CCOCC1	-8	5813	-14	2	-1	0.7	.
COc1ccc(Cl)cc1NC(=O)Nc1ccc(C(=O)N2CCCC2)cc1	-16	5954	-1	6	-5	-2.9	11
COc1cccc(-c2cc(C(F)(F)F)n3ncc(C(=O)O)c3n2)c1	-12	3329	6	7	-7	7.4	-3
OC(COC(c1ccc(F)cc1)c1ccc(F)cc1)CN1CCCC1 (configuration not stated)	-15	3291	14	5	11	0.7	-6
COc1ccccc1NC(=O)COc1ccc(/C=N/NC(=O)CSCc2ccc(Cl)cc2)cc1	-16	2589	.	.	.	.	-7
O=C([O-])c1ccc(-[n+]2c(-c3ccccc3)cc(-c3ccccc3)cc2-c2ccccc2)cc1	-11	3026	-1	12	-30	5.4	-3
Cc1ccccc1NP(=O)(Oc1ccccc1F)Oc1ccccc1F	-13	7154	-5	-5	-13	2.9	-5
Cc1cccc(C)c1NC(=O)CN(C)C(=O)c1ccccc1Cc1ccccc1	-4	.	8	6	1	6.7	1
Cc1ccc(C(=O)n2cnnc2N)cc1	-11	21599*	-8	5	-13	3.7	-1
CCOC(=O)C1(Cc2cccc(F)c2)CCN(Cc2cnn(CC)c2C)CC1	-15	6284	7	10	1	2.1	-5
O=[N+]([O-])c1cccc(N2Cc3ccccc3C2)c1	-16	4621	-6	16	6	-5.9	-14
CCOC(=O)c1ccc(NC(=O)CCSCCc2ccccn2)cc1	-76	2589	5	9	-4	2.5	-11
N#Cc1cc2ccccc2nc1SCC(=O)Nc1ccc(S(=O)(=O)N2CCCC2)cc1	-44	9953	7	9	-11	1.2	5
CCc1cc(C)cc(OCCNC(=O)c2ncn[nH]2)c1	-21	7845	10	5	-1	1.8	3
COc1ccc(Cl)cc1NC(=O)NCc1ccccn1	0	4208	8	-5	6	2.8	0
O=C(CN1C(=O)NC2(CCCCC2)C1=O)NCCCSc1ccccc1	-18	2894	4	-1	6	-0.9	.
Cc1cc(NC(=O)CSc2nnc(NCc3ccco3)s2)no1	.	.	5	0	0	-1.0	.
Cc1cccc(C(=O)N(Cc2nc3ccccc3c(=O)[nH]2)C2CCCCC2)c1	-4	3834	6	9	-12	0.5	-3
Cc1ccc(F)cc1NC(=O)CCC(=O)c1cccs1	-13	2954	.	.	-1	2.0	0
COc1cc(NC(=O)Cn2cnc3c(nc4n3CCCCC4)c2=O)cc(OC)c1OC	-9	5629	-1	8	-2	1.6	-4
O=C(/C=C/c1ccco1)N1CCN(c2ccc(F)cc2)CC1	-11	4844	19	23	4	0.7	-3
Cc1cc(C)n(-c2ccc(C(=O)OCC(=O)Nc3ccc(S(N)(=O)=O)cc3)cc2)n1	-20	3815	11	7	2	1.5	.
Nc1ccc(S(=O)(=O)NC2=NCCCCC2)cc1	-16	4206	5	3	15	2.4	-6
Cc1cccc(N(CC(=O)NCc2ccco2)C(=O)CCC(=O)Nc2nccs2)c1C	-11	3090	-4	-3	-3	-1.8	6
Cc1cc(=O)n2[nH]c(CCC(=O)O)nc2n1	-6	3496	10	-5	0	1.5	2
CC1CCc2cc(F)ccc2N1C(=O)CSc1nnc2c(n1)[nH]c1ccc(F)cc12 (configuration not stated)	-1	5864	8	5	-32	3.0	0
Cc1cc(C)cc(NC(=O)C2CCCN2S(=O)(=O)c2ccc3c(c2)n(C)c(=O)c(=O)n3C)c1 (configuration not stated)	-24	6460	.	.	7	0.3	-18
O=C1c2oc3ccc(F)cc3c(=O)c2C(c2ccccc2)N1CC1CCCO1 (configuration not stated)	-46	9734	8	7	-4	3.8	-15
CCOc1ccc(/C=C(/NC(=O)c2ccc(Cl)cc2)C(=O)O)cc1OCC	-6	4466	-3	0	7	8.0	-5
COc1cc(OC)c(C2C3=C(CCCC3=O)Nc3nc4ccccc4n32)cc1OC (configuration not stated)	-12	3008	5	4	-3	-12	-6
Clc1ccc(CN2CCCCCC2)cc1	-29	3804	6	4	9	-0.6	-11
Cc1ccccc1NC(NC(=O)c1cccnc1)C(Cl)(Cl)Cl (configuration not stated)	-18	9955	-3	-3	-3	7.7	-6
CC12CCC(=O)N1C(C(=O)N1CCN(S(=O)(=O)c3cccc(Cl)c3)CC1)CS2 (configuration not stated)	-10	5330	10	5	1	2.5	-5
Cc1onc(-c2ccccc2)c1C(=O)n1cccn1	-8	3908	.	.	5	3.7	5
CC(C)COC(=O)Nc1nnc(SCCOc2ccccc2)s1	-11	2807	4	11	1	0.4	1

Grouped by structure, the compounds so far with a furan ring, fused or not.
SMILES	PrP 5UTR inh	Autofluor counter	Mtb hypoxia inh	Mtb hypoxia inh growth	Sa ugtP lethal	RN4220 kill	BJeLR viability
O=C(CSc1nc2ccccc2[nH]1)N1CCN(C(=O)c2ccco2)CC1	-17	2402	5	6	5	5.3	1
CSc1cc(-c2ccco2)oc1C(=O)c1ccco1	-16	.	-3	3	-8	7.5	-6
Cc1cc(NC(=O)CSc2nnc(NCc3ccco3)s2)no1	.	.	5	0	0	-1.0	.
O=C(/C=C/c1ccco1)N1CCN(c2ccc(F)cc2)CC1	-11	4844	19	23	4	0.7	-3
Cc1cccc(N(CC(=O)NCc2ccco2)C(=O)CCC(=O)Nc2nccs2)c1C	-11	3090	-4	-3	-3	-1.8	6

Next section:
SMILES	PrP 5UTR inh	Autofluor counter	Mtb hypoxia inh	Mtb hypoxia inh growth	Sa ugtP lethal	RN4220 kill	BJeLR viability
CCN(CC)S(=O)(=O)c1cccc(NN=c2c(=O)c3ccccc3c2=O)c1	-24	4381	-8	-8	-9	1.8	-3
COc1ccc(Cl)cc1N(CC(=O)N1CCCCCC1)S(C)(=O)=O	-18	3945	16	7	-2	5.0	7
O=C(CSCc1c(F)cccc1Cl)NCCSCc1ccco1	-15	3385	-10	-12	-2	11	-5
c1ccc(CCNCc2cccnc2)cc1	-15	3770	5	9	12	3.1	-4
COc1cc(SC)ccc1C(=O)NCCc1ccccc1	-73	2115	21	4	11	9.8	-10
Cn1c(=O)c2c(nc(NN=Cc3ccc(OC(=O)c4ccco4)cc3)n2Cc2ccccc2)n(C)c1=O	.	.	-6	7	5	-0.2	.
CCC(CC)C(=O)NCCN1CCN(C(=O)C(CC)CC)CC1	1	3653	3	2	13	6.0	-4
O=C(CCCn1c(=S)[nH]c2cc3c(cc2c1=O)OCO3)N1CCN(c2ccccc2F)CC1	-5	9260	1	2	-6	2.8	-3
CCC1CCCCN1CCCNC(=O)CSc1nc2nc(C)c(Cc3ccccc3)c(C)n2n1 (configuration not stated)	-15	4817	-3	-2	2	0.1	9
Cc1ccc(OCC(=O)Nc2ccc([N+](=O)[O-])cc2)cc1	-13	2506	-8	3	3	5.2	19
CCCn1nc(C(=O)NNC(=O)c2cccc(C)c2)c2ccccc2c1=O	-28	3357	16	14	9	3.3	.
O=C(Cn1cnc2c(nnn2Cc2ccc(F)cc2)c1=O)N1CCCCC1	-17	10034	6	2	6	2.5	-2
CCOCCCNC(=O)C(Cc1ccccc1)NS(=O)(=O)c1cccc2nsnc12 (configuration not stated)	-22	4357	-2	-7	7	2.3	.
COc1ccc(C)cc1S(=O)(=O)n1cnc(C)c1	-10	3785	0	0	6	1.4	-16
CC(=NNc1nncc2ccccc12)c1cccc(OC(F)F)c1	.	.	12	-4	-4	4.4	.
CCCCCOc1ccc(NC(=O)C(=O)NCC2CCCN2CC)cc1 (configuration not stated)	-2	1919	5	6	18	-1.0	5
O=C(COCc1cc(-c2ccc3c(c2)OCO3)on1)N1CCN(c2cccc(Cl)c2)CC1	-23	5577	12	0	4	0.0	5
COc1ccc(/C(O)=C2/C(=O)C(=O)N(CCCN(C)C)C2c2ccccc2)cc1OC (configuration not stated)	-18	21222*	5	6	3	0.0	13
CCc1cccc(NC(=O)c2ccc3c(=O)n4c(nc3c2)CCCCC4)c1	-15	4674	3	11	-2	0.6	-4
Cc1ccc(CCNC(=O)C2CCC(=O)N2Cc2cccnc2)cc1 (configuration not stated)	-5	3828	.	.	6	-0.1	1
c1ccc(-c2nnc(N3CCOCC3)c3ccccc23)cc1	-13	7420	12	17	-5	3.0	6
COc1ccccc1/C=C(/C(=O)OCC(=O)Nc1ccccc1C(C)C)c1ccccc1	-8	2068	-5	6	8	2.1	.
CCOC(=O)c1c(N)sc2c1CCN(CCc1ccccc1)C2	-12	.	6	6	4	0.5	-4
CC(C)N=C(Nc1ccccc1)c1cccnc1	-27	5557	9	7	4	2.8	4
CCc1c(C)nc2ncnn2c1N1CCCC(C(=O)Nc2ccc(NC(C)=O)cc2)C1 (configuration not stated)	7	2476	0	8	2	-18	2
CSc1nsc(NC(=O)Nc2ccccc2)n1	-43	4131	-4	16	-23	4.8	-2
Cc1c(NC(=O)Nc2ccccc2)cccc1[N+](=O)[O-]	-16	7818	2	1	11	-0.7	11
O=C(CCN1CCOCC1)N1CCCC(Nc2cccc(F)c2)C1 (configuration not stated)	-6	5088	-3	3	-3	-4.3	7
COc1nccnc1NS(=O)(=O)c1ccc(NCc2ccccc2O)cc1	0	4372	5	11	2	0.1	-1
CC1CCCCN1C(=O)CSc1nc2c(c(=O)n(C)c(=O)n2C)n1C (configuration not stated)	0	6195	2	1	1	1.1	-6
Brc1cc2c(cc1Cn1c(-c3cncs3)nc3ccccc31)OCO2	2	3559	.	.	-5	-5.1	-1
O=C(Cn1nc([N+](=O)[O-])nc1Br)NC(c1ccccc1)c1ccccc1	-26	2412	4	10	25	-1.7	-7
CCOC(=O)c1[nH]c(C)c(C(=O)NCc2ccc(OC)cc2)c1C	3	6260	.	.	7	0.4	2
O=C(NNS(=O)(=O)c1ccccc1F)c1ccccc1-n1cccc1	-5	5942	-6	-2	-2	2.7	3
O=S(=O)(N/N=C/c1c(F)cccc1Cl)c1ccccc1	-27	4451	.	.	.	.	-4
Cc1ccc(S(=O)(=O)CCC(=O)OCC(=O)N(C)CC(=O)Nc2ccc(F)cc2)cc1	-2	6961	9	0	1	2.0	4
O=C(c1ccc(-n2cccc2)cc1)N1CCCCC1	-26	4383	15	6	6	3.7	-5
CCn1c(SCC(=O)NCCc2ccc(OC)c(OC)c2)nc2c1c(=O)n(C)c(=O)n2C	-28	10207	-1	2	5	3.3	1
Cc1cccc(C)c1NC(=O)CNC(=O)c1cccc(S(=O)(=O)NCc2cccs2)c1	-10	3782	12	7	3	4.1	.
O=[N+]([O-])c1cccc(N/N=C/c2cccc3ccccc23)c1	-30	3117	.	.	.	.	1
O=C(Nc1ccncc1)c1cccc(S(=O)(=O)N2CCc3ccccc32)c1	-3	4542	-21	-7	-7	3.3	25
CC(=NOCC(=O)Nc1ccccc1C(=O)O)c1cccs1	.	.	2	10	6	14	.
O=C(C1CCC1)N1CCCc2cc(S(=O)(=O)N3CCN(c4ccccc4)CC3)ccc21	0	5767	-3	-6	3	-0.9	2
CCCCOC(=O)CCNc1n[nH]c(=O)[nH]c1=O	-21	8958	6	12	1	2.0	3
